Mtb bLac sens: beta-lactam sensitization of Mtb H37Rv. M. tuberculosis H37Rv growth with meropenem, percent inhibition; hits of this screen are not shown here. AID 434955. inhibition, % at 25 µM. actives 0.27% (n = 330,000);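 active = about 74% or more and at least 40 points above the plate without the antibiotic, then above 30% in a dose series; inconclusive = first-round hits that could not be retested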;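 note: growth measured after seven days incubation then overnight dye step; 0% = bacteria only wells and 100% = bacteria with antibiotic; twin plates without the antibiotic show which effects depend on it; some results filed as inactive read as strong as hits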
The depositor's hits bear a star; ? = inconclusive. Some of the compounds tested; count on the stated rates, not on these rows.

cpd	mol	Mtb bLac sens
1	CCN1CCN(C(=O)c2ccc(S(=O)(=O)Nc3ccccc3)cc2)CC1	0
2	COc1ccc(NC2CCCN(C(=O)CSc3ccccc3)C2)cc1OC (stereo not given)	?
3	Cc1cc(OCC(=O)OCC(=O)N2CCc3ccccc32)ccc1Cl	5
4	c1ccc2c(c1)-c1cccc3cccc-2c13	-4
5	CCCCC1CCC(C(=O)Nc2ccccc2N2CCOCC2)CC1 (stereo not given)	3
6	O=C(COC(=O)c1cccc(OC(F)F)c1)Nc1ncccn1	-7
7	CC(=O)NC(C)c1cc(F)c2cccnc2c1O (stereo not given)	35
8	CCOc1ccc(CCN2C(=O)C3C4CCC(O4)C3C2=O)cc1OCC (stereo not given)	-6
9	CCOc1ccc(NC(=O)c2nn(C)c(C(=O)Nc3ccc(OCC)cc3)c2[N+](=O)[O-])cc1	4
10	Cc1cc(F)ccc1S(=O)(=O)N(CC(=O)N1CCOCC1)CC(=O)N1CCOCC1	-3
11	CCN(CC)CCN(Cc1cc2cc3c(cc2[nH]c1=O)OCO3)C(=S)NC	1
12	Cc1ccc(C(=O)NNC(=O)C2CC2)cc1Br	-2
13	COc1ccc(OCCCC(=O)N(CCC2=CCCCC2)c2c(N)n(Cc3ccccc3)c(=O)[nH]c2=O)cc1	-3
14	CC(NC(=O)CNC(=O)C1CCCCC1)c1cccc(Cl)c1 (stereo not given)	3
15	COC(C(=O)Nc1ccnn1C1CCN(Cc2cnn(C)c2)CC1)c1ccccc1 (stereo not given)	-2
16	Cc1ccccc1OCC(=O)Nc1nnc(C2CC2)s1	9
17	CCCCc1cc(=O)oc2cc(C)cc(OCC(=O)N3C[C@H]4C[C@@H](C3)c3cccc(=O)n3C4)c12	-7
18	COc1cc(C2c3cc4c(cc3CC3COC(=O)C32)OCO4)cc(OC)c1OC (stereo not given)	-3
19	COc1ccc(NC(=O)NS(=O)(=O)c2ccc(C)cc2)cc1OC	1
20	CC(OC(=O)c1cccnc1Cl)C(=O)NCc1ccccc1 (stereo not given)	3
21	CN(C)CCOc1ccc(-c2c(-c3ccccc3)sc3ccccc23)cc1	100
22	N#Cc1c(/N=C/c2ccc(-c3ccc(C(=O)O)c(Cl)c3)o2)sc2c1CCCC2	2
23	O=C(Cn1cnc2c(NC(=O)OCc3ccccc3)ncnc21)NCCN1CCOCC1	-1
24	COc1ccc2c(c1)c(=O)oc1c(C)c(OC(C)C(=O)N[C@@H](Cc3c[nH]c4ccc(O)cc34)C(=O)O)ccc12 (stereo not given in full)	-12

Quoted at random: 2 compounds from above.
cpd	mol	Mtb bLac sens
23	O=C(Cn1cnc2c(NC(=O)OCc3ccccc3)ncnc21)NCCN1CCOCC1	-1
24	COc1ccc2c(c1)c(=O)oc1c(C)c(OC(C)C(=O)N[C@@H](Cc3c[nH]c4ccc(O)cc34)C(=O)O)ccc12 (stereo not given in full)	-12

Following part.
cpd	mol	Mtb bLac sens
25	Clc1ccccc1OCCCCN1CCNCC1	-2
26	CC(C)[C@H](NS(=O)(=O)c1ccccc1)C(=O)OCC(=O)NCc1ccc2c(c1)OCO2	-7
27	Cc1ccc(NS(=O)(=O)c2ccc3[nH]c(=O)oc3c2)cc1Cl	-4
28	CCOc1ncccc1C(=O)N(CC)CC(=O)NCc1ccc(F)cc1	-1
29	Cc1ccccc1OCC(=O)N(Cc1nnc(-c2ccc(Cl)cc2)o1)C(C)C	2
30	NC(=O)CC[C@H](NC(=O)c1ccc(F)cc1)C(=O)N1CCN(Cc2ccc3c(c2)OCO3)CC1	-6
31	COc1ccc(CCNC(=O)C/C(C)=N/NC(=O)c2ccc([N+](=O)[O-])cc2Cl)cc1OC	-5
32	Cc1ccc(S(=O)(=O)N(C)CC(=O)NNC(=O)CCNS(=O)(=O)c2cccc(C)c2)cc1	2
33	Cc1cc(C(=O)OCC(=O)NC2CCCC(C)C2C)c(C)o1 (stereo not given)	1
34	Cc1cccc(N2CCN(C(=O)C3CCC(CNS(=O)(=O)c4cccs4)CC3)CC2)c1C (stereo not given)	14
35	O=C(NCc1ccccc1CN1CCCC1)c1cccc(S(=O)(=O)N2CCCC2)c1	-7
36	C[C@H]1CN([C@@H](C)CO)C(=O)Cc2cc(NC(=O)CCC(F)(F)F)ccc2O[C@H]1CN(C)Cc1ccc(-c2ccccc2)cc1	94
37	O=C(COC(=O)c1cnc(Cl)c(Cl)c1)NC1CC1	-2
38	O=C(CCC(=O)c1ccc(Cl)s1)Nc1ncccc1O	-4
39	S=c1[nH]nc(-c2ccccc2)n1/N=C/c1cccc(Br)c1	12
40	c1cncc(CNc2ncnc3ccc(-c4ccoc4)cc23)c1	14
41	COC(=O)c1sccc1NC(=O)c1c(F)c(F)c(F)c(F)c1F	100
42	CC(OC(=O)Cc1ccsc1)C(=O)Nc1ccc(C(N)=O)cc1 (stereo not given)	-9
43	C[C@]12C(=O)N(c3ccc(F)cc3)C(=O)N1[C@H]1c3ccccc3OC[C@@H]1[C@H]2c1ccccc1	11
44	COC(=O)C1=C(c2ccc(OC)c(OC)c2)C[C@@H]2CC[C@H]1N2C(=O)N1CCc2cc(OC)c(OC)cc2C1	2
45	O=C(OCC(=O)C12CC3CC(CC(C3)C1)C2)c1ccccc1O	3
46	COc1ccc(CCNC(=O)C2CC(O)CN2S(=O)(=O)c2ccc(Cl)cc2)cc1OC (stereo not given)	-4
47	O=C(Nc1cc2c(cc1Br)OCCO2)c1ccc(=O)[nH]c1	6
48	O=C(Nc1ccccc1F)C(=O)Nc1cccc2ccccc12	0
49	COc1ccc(-c2c(-c3cc(OC)cc(OC)c3)n(C)c3ccc(-c4ccc5c(c4)OCCO5)cc23)cc1	-5
50	CC(C)CN(C(=O)COC(=O)c1ccc(Cl)nc1)c1c(N)n(Cc2ccccc2)c(=O)[nH]c1=O	-6
51	COc1cc(C)c(C)cc1S(=O)(=O)n1c(C)nc2ccccc21	-6
52	Cc1cc(C)nc(NS(=O)(=O)c2ccc(NC(=O)COc3ccccc3F)cc2)n1	4
53	COC(=O)[C@]1(C)N[C@H](CN(C)C(=O)c2ccccc2)[C@@H]2C(=O)N(C)C(=O)[C@@H]21	1
54	O=C(COC(=O)COc1ccccc1F)NC1CC1	-4
55	CNC[C@H]1Oc2c(NS(=O)(=O)c3cccs3)cccc2C(=O)N([C@H](C)CO)C[C@@H]1C	-1
56	C[C@@H]1COC(=O)[C@@H](CC(=O)OC(C)(C)C)C/C=C\C[C@@H](CC(=O)NCCO)C(=O)N1	-3
57	COc1cc(C2(c3ccc(O)c(OC)c3)C(=O)N(C)c3ccc(Br)cc32)ccc1O	-3
58	COC(=O)C1=C(c2ccc(F)cc2OCc2ccccc2)C[C@@H]2CC[C@H]1N2C(=O)NCCN1CCOCC1	4
59	CCOc1ncccc1C(=O)Nc1cc(C(F)(F)F)ccc1N1CCOCC1	8
60	O=C(Cn1ccc(NC(=O)OCc2ccccc2)nc1=O)NCC1CCCO1 (stereo not given)	-2

Gathered by group, the compounds so far containing a CF3 group
cpd	mol	Mtb bLac sens
36	C[C@H]1CN([C@@H](C)CO)C(=O)Cc2cc(NC(=O)CCC(F)(F)F)ccc2O[C@H]1CN(C)Cc1ccc(-c2ccccc2)cc1	94
59	CCOc1ncccc1C(=O)Nc1cc(C(F)(F)F)ccc1N1CCOCC1	8

The list continues.
cpd	mol	Mtb bLac sens
61	CCOc1ccccc1NC(=O)NC1(C(=O)NCC2CCCO2)CCCCC1 (stereo not given)	3
62	Cc1cc(NS(=O)(=O)c2ccc(NC(=O)COc3ccccc3C(C)(C)C)cc2)no1	?
63	Cc1ccccc1CC(=O)OCC(=O)Nc1ccc(C)c(S(=O)(=O)N2CCCCC2)c1	2
64	CC(C)c1ccc(NC(=O)CN2C(=O)NC(C)(C3CC3)C2=O)cc1 (stereo not given)	-6
65	COc1ccc([C@H]2CC(=O)C=C(c3cc4ccccc4c4ccccc34)C2)cc1	33
66	O=C(Nc1cc(C(F)(F)F)ccc1-n1cncn1)c1ccc(F)cc1Cl	-7
67	CCOc1ccc(S(=O)(=O)NCCC(=O)NC2CCC(C)CC2)cc1 (stereo not given)	1
68	COc1ccc(/C=C(/NC(=O)c2ccco2)C(=O)Nc2cccc(C(=O)O)c2)cc1	-2
69	O=C(OCCCc1cc2ccccc2c(=O)o1)c1ccco1	2
70	O=C(c1cc(=O)[nH]c2ccccc12)N1CCN(S(=O)(=O)c2ccc(Cl)cc2)CC1	-2
71	COc1cccc(CC(=O)OCC(=O)NCc2ccc3c(c2)OCO3)c1	0
72	O=C1CCCCC1	-10
73	CC(C)(C)[C@@H]1CCC(=O)N(CC[C@H](Sc2ccc(Br)cc2)c2ccccc2)CC1	-6
74	CC(=O)c1cc2ccccc2oc1=O	-5
75	CC1(C)CC2CC(C)(CN2S(=O)(=O)c2ccccc2[N+](=O)[O-])C1 (stereo not given)	-3
76	Cc1ccc(NC(=O)C2CCC(C(C)(C)C)CC2)cc1S(=O)(=O)N1CCOCC1 (stereo not given)	-4
77	COc1ccc(-c2oc3ccccc3c2C#Cc2cncn2C)cc1	100
78	COc1cc(NC(=O)CCN2CCN(C)CC2)cc(OC)c1	1
79	Cc1ccc(S(=O)(=O)N2CCCN(C)c3nc4ccccc4nc32)cc1	1
80	Cc1ccc2c(c1)C(=O)C(=O)N2c1ccc(Cl)cc1	-2
81	COc1ccc(-c2oc3ccc(-c4cc(OC)c(OC)c(OC)c4)cc3c2C#Cc2ccccn2)cc1	-5
82	CC(=O)c1ccc(NC(=O)C(C)Oc2ccc(N(C)S(=O)(=O)c3ccc(C)cc3)cc2)cc1 (stereo not given)	-4
83	Cc1ccc(S(=O)(=O)N(C)C)cc1NC(=O)CN1C(=O)NC(Cc2ccccc2)C1=O (stereo not given)	-4
84	COc1ccccc1NC(=O)COc1ccc(C(=O)NCC2CCCO2)cc1OC (stereo not given)	1
85	Cc1ccc(S(=O)(=O)Oc2ccccc2N2C(=O)C3C4CCC(C4)C3C2=O)cc1 (stereo not given)	-7
86	COC(=O)C1=C(c2cccc(OCc3ccccc3)c2)C[C@@H]2CC[C@H]1N2C(=O)NCc1ccc2[nH]ccc2c1	-11
87	O=C(Cn1cnc2c(OCc3ccccc3)ncnc21)NCCN1CCOCC1	4
88	O=c1[nH]c(-c2ccc(-c3cccc(Cl)c3)o2)nc2ccccc12	-5
89	COCC(C)n1c(C)cc(C(=O)COC(=O)c2cccn2C)c1C (stereo not given)	-3
90	O=C(Cc1ccccc1)NCC(=O)N1CCN(Cc2cccc(Cl)c2)CC1	10
91	C=CC[C@H](CC(=O)N(CCO)Cc1ccccc1)C(=O)NCCOC(=O)[C@@H](CC=C)Cc1ccc(F)cc1	-2
92	O=C(CCNC(=O)c1ccccc1Cl)NCCCSc1ccccc1	-10
93	CN1CCN(C(c2ccccc2)c2ccc(Cl)cc2)CC1 (stereo not given)	-4
94	CCc1cc(=O)oc2c3c(cc(OCC(=O)NCCN4CCOCC4)c12)OC(C)(C)CC3	-4
95	C[C@H](CO)N1C[C@H](C)[C@@H](CN(C)C(=O)Nc2ccc(C(F)(F)F)cc2)Oc2c(NC(=O)NC3CCCCC3)cccc2C1=O	15
96	CC(C)(Cl)[N+](=O)[O-]	-5
97	COC(=O)C1=C(c2ccc(F)cc2F)C[C@@H]2CC[C@H]1N2C(=O)N1CCCC1	0
98	COc1ccc([C@H]2CC(=O)C=C(c3cc(Cl)ccc3OC)C2)cc1	65
99	CN=C(N)NCCC[C@H](N)C(=O)O	3
100	O=C(CN1CCN(C(=O)CNC(=O)c2ccc3c(c2)OCO3)CC1)Nc1ccc(F)cc1	-11
101	N#Cc1ccc(S(=O)(=O)N2CCN(CC(=O)NCC3(N4CCOCC4)CCCCC3)CC2)cc1	-3
102	CC1CC(C)CN(C(=O)COC(=O)c2cn(C)c3ccccc23)C1 (stereo not given)	-11
103	CCN(C(=O)CN1CCN(C)CC1)c1c(N)n(Cc2ccccc2)c(=O)[nH]c1=O	3
104	COc1cc(/C=C/C(=O)OCC(=O)NC(=O)C2COc3ccccc3O2)ccc1OC(F)F (stereo not given)	-2
105	NC(=O)C1CCN(C(=O)CN(c2cccc(Cl)c2)S(=O)(=O)c2ccccc2)CC1	?
106	Cc1c(C(=O)OCC(=O)N(C)CC(=O)Nc2ccc(F)cc2)oc2ccccc12	0
107	COc1cc(CNn2c(C)n[nH]c2=S)cc(Cl)c1OCC(=O)NC(C)(C)C	-11
108	CCCC1(c2ccccc2)NC(=O)N(CC(=O)N2CC(=O)Nc3ccccc32)C1=O (stereo not given)	1
109	Cc1cc(C)cc(N2C(=O)CC(c3ccccc3)CC2=O)c1	-4
110	Cc1ccccc1/C=N/NC(=O)c1ccc(-n2cnnn2)cc1	-4
111	CCc1cc(=O)oc2c(C)c(OCC(=O)N3CC[C@@]4(O)CCCC[C@H]4C3)ccc12	-6
112	CN(C)c1ccc(-c2cc3ccccc3c(=O)o2)cc1	-1
113	COc1ccccc1N(C)S(=O)(=O)c1ccc(C(=O)Nc2cccc(Br)c2)cc1	-1
114	CCCOC1CCCN(C(=O)c2ccc3oc(C(C)C)nc3c2)C1 (stereo not given)	-9
115	C[C@H](CO)N1C[C@H](C)[C@@H](CN(C)S(C)(=O)=O)Oc2c(NC(=O)c3ccncc3)cccc2C1=O	6
116	CC1(c2ccccc2)NC(=O)N(CC(=O)N(c2ccccc2)C2CCS(=O)(=O)C2)C1=O (stereo not given)	-5
117	Cc1cccc(C)c1NC(=O)CN(C)C(=O)c1ccccc1Sc1ccccc1C#N	1
118	O=C(c1ccccc1)N1CCN(S(=O)(=O)c2ccc(Cl)c(C(F)(F)F)c2)CC1	1
119	CN(CC(=O)Nc1ccc(Cl)c(C(F)(F)F)c1)C(=O)c1cccc2cccnc12	0
120	O=C(NCc1cccc(Cl)c1)c1ccc2c(c1)OCCO2	-2
121	Cc1ccc(C2(C)NC(=O)N(CC(=O)N3CC(=O)Nc4ccccc43)C2=O)cc1 (stereo not given)	1
122	Cc1cc(-n2cnnn2)cc(C)c1S(=O)(=O)N(C)c1ccccc1	-9
123	COC(=O)C1=C(c2ccc(F)cc2F)C[C@@H]2CC[C@H]1N2C(=O)N1CCC(C)CC1	-2

A few values from the results shown.
Cc1cc(-n2cnnn2)cc(C)c1S(=O)(=O)N(C)c1ccccc1 @ Mtb bLac sens: -9
CC1(c2ccccc2)NC(=O)N(CC(=O)N(c2ccccc2)C2CCS(=O)(=O)C2)C1=O (stereo not given) @ Mtb bLac sens: -5

From PubChem
